Vaccinia inh: Vaccinia orthopox stage-specific inhibition | Vaccinia-infected cells, mCherry/Venus stage reporter fluorescence; hits give low values; some inactives read as strong as hits | activity change (mCherry), % (test concentration not listed) | actives 0.01% (n = 89,000) | AID 1053133;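 active = mCherry past -33% and 40 or more points under the early reporter, replicates agreeing; inconclusive = past -33% without that gap or agreement; tested in A549 cells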;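 note: scaled between vehicle wells and reference inhibitor wells; 23 nL library stock went into each well; one replicate is shown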
Vaccinia inh Venus: recorded beside Vaccinia inh, whose call it bears; activity change (Venus), %; measured here: Venus reporter, other viral stage;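 negative = less Venus signal; first of two replicates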
Active calls of the source: *; ? = inconclusive; / = not tested or not shown. An excerpt; rates above refer to the full screens.

SMILES	Vaccinia inh	Vaccinia inh Venus
C[C@@H]1CN([C@H](C)CO)C(=O)c2cccc(NC(=O)Nc3ccccc3)c2O[C@H]1CN(C)Cc1ccc2c(c1)OCO2	-4	-7
COCC(=O)N1CCCCN2[C@@H](CO)[C@H](c3ccc(C#Cc4cccnc4)cc3)[C@@H]2C1	17	10
Cc1ccc(S(=O)(=O)Nc2cccc3c2O[C@H](CN(C)C(=O)NC2CCCCC2)[C@@H](C)CN([C@H](C)CO)C3=O)cc1	-5	-1
Cc1ccc(S(=O)(=O)Nc2ccc3c(c2)C(=O)N([C@H](C)CO)C[C@H](C)[C@@H](CN(C)Cc2ccc(Cl)c(Cl)c2)OCCCC[C@@H](C)O3)cc1	?	/
CCC(=O)N(C)C[C@@H]1Oc2cc(-c3ccccc3C)ccc2S(=O)(=O)N([C@H](C)CO)C[C@H]1C	-14	-7
Cc1ccc(NC(=O)C[C@H]2CC[C@H]3[C@@H](COc4ccc(NC(=O)C5CCC5)cc4C(=O)N3C)O2)cc1	-27	-21
CC(C)NC(=O)N(C)C[C@H]1Oc2cc(C#CC(C)(C)O)ccc2S(=O)(=O)N([C@@H](C)CO)C[C@H]1C	24	11
C[C@@H]1CN([C@H](C)CO)C(=O)Cc2cc(NC(=O)CCC(F)(F)F)ccc2O[C@H]1CN(C)C	10	6
CCS(=O)(=O)NCC[C@H]1CC[C@H](NS(=O)(=O)c2cccc(F)c2)[C@H](CO)O1	14	8
N#C[C@@H]1[C@H](c2ccc(C#Cc3ccccc3F)cc2)[C@H](CO)N1C(=O)C1CC1	-35	-28
C[C@H]1CN([C@@H](C)CO)C(=O)c2cc(NS(=O)(=O)c3cccs3)ccc2O[C@@H]1CN(C)C(=O)Nc1ccccc1	29	33
C[C@@H]1CN([C@H](C)CO)C(=O)c2cc(NS(=O)(=O)c3cn(C)cn3)ccc2O[C@H]1CN(C)Cc1ccc(Cl)c(Cl)c1	9	4
C[C@H](CO)N1C[C@H](C)[C@@H](CN(C)C(=O)Nc2ccccc2)Oc2ncc(C#CC3CC3)cc2C1=O	22	12
O=C(C[C@@H]1CC[C@H](NC(=O)C2CC2)[C@@H](CO)O1)NCC1CC1	-6	-7
C/C=C/c1ccc([C@@H]2[C@@H](CO)N(Cc3cccc(F)c3)C23CN(C(C)=O)C3)cc1	-11	-2

4 entries from above, with each value named:
> C[C@H]1CN([C@@H](C)CO)C(=O)c2cc(NS(=O)(=O)c3cccs3)ccc2O[C@@H]1CN(C)C(=O)Nc1ccccc1
  Vaccinia inh = 29; Vaccinia inh Venus = 33

> C[C@@H]1CN([C@H](C)CO)C(=O)c2cc(NS(=O)(=O)c3cn(C)cn3)ccc2O[C@H]1CN(C)Cc1ccc(Cl)c(Cl)c1
  Vaccinia inh = 9; Vaccinia inh Venus = 4

> C[C@H](CO)N1C[C@H](C)[C@@H](CN(C)C(=O)Nc2ccccc2)Oc2ncc(C#CC3CC3)cc2C1=O
  Vaccinia inh = 22; Vaccinia inh Venus = 12

> O=C(C[C@@H]1CC[C@H](NC(=O)C2CC2)[C@@H](CO)O1)NCC1CC1
  Vaccinia inh = -6; Vaccinia inh Venus = -7

Back to the main list; the 3 compounds before the break are reprinted first.
SMILES	Vaccinia inh	Vaccinia inh Venus
C[C@H](CO)N1C[C@H](C)[C@@H](CN(C)C(=O)Nc2ccccc2)Oc2ncc(C#CC3CC3)cc2C1=O	22	12
O=C(C[C@@H]1CC[C@H](NC(=O)C2CC2)[C@@H](CO)O1)NCC1CC1	-6	-7
C/C=C/c1ccc([C@@H]2[C@@H](CO)N(Cc3cccc(F)c3)C23CN(C(C)=O)C3)cc1	-11	-2
C[C@@H]1CCCCO[C@@H](CN(C)C(=O)Nc2ccccc2)[C@@H](C)CN([C@@H](C)CO)C(=O)c2cc(NC(=O)Nc3ccc4c(c3)OCO4)ccc2O1	9	10
C[C@H](CO)N1C[C@H](C)[C@@H](CN(C)S(=O)(=O)c2cn(C)cn2)OCCCC[C@H](C)Oc2ccc(N(C)C)cc2C1=O	12	17
C[C@H]1CN([C@@H](C)CO)C(=O)Cc2cc(NC(=O)Cn3cnnn3)ccc2O[C@H]1CN(C)Cc1ccc(Oc2ccccc2)cc1	-7	1
CCCNC(=O)N[C@@H]1CC[C@H](CC(=O)N2CCN(C)CC2)O[C@H]1CO	6	12
C[C@H]1CN([C@@H](C)CO)C(=O)c2cc(/C=C/c3ccccc3)cnc2O[C@H]1CN(C)C(=O)CN(C)C	-4	-6
COc1ccc(NC(=O)Nc2ccc3c(c2)C(=O)N([C@@H](C)CO)C[C@@H](C)[C@@H](CN(C)C)OCCCC[C@@H](C)O3)cc1	12	12
CO[C@H]1CN(C)C(=O)c2cc(NC(=O)c3cccc(F)c3)ccc2OC[C@@H](C)N(C)C[C@@H]1C	-1	4
CCC(=O)N1CCCCN2[C@H](CO)[C@H](c3ccc(-c4cccnc4)cc3)[C@@H]2C1	34	13
O=C(C[C@@H]1C[C@H]2c3cc(NC(=O)Nc4ccccc4F)ccc3O[C@H]2[C@@H](CO)O1)NC1CCCCC1	3	5
C[C@H]1CN([C@@H](C)CO)C(=O)c2cc(-c3ccc(F)cc3)cnc2O[C@@H]1CN(C)C(=O)NC1CCCC1	3	-3
CCNC[C@@H]1[C@@H](c2ccccc2)[C@@H](CO)N1C(=O)Cc1ccccn1	-11	-3
COc1ccc(S(=O)(=O)N(C)C[C@@H]2Oc3ccc(NC(=O)NC(C)C)cc3CC(=O)N([C@@H](C)CO)C[C@@H]2C)cc1	16	14
Cc1noc(C)c1NC(=O)Nc1ccc2c(c1)C(=O)N(C)[C@H]1CC[C@H](CC(=O)NCc3ccc(Cl)cc3)O[C@H]1CO2	8	-1
CC=Cc1ccc2n(c1=O)C[C@@H]1[C@@H](CO)[C@H](C(=O)N3CCC(Cc4ccccc4)CC3)N(C)[C@H]21 (mixture of isomers)	?	/
O=C(C[C@@H]1C=C[C@H](NC(=O)C2CCOCC2)[C@H](CO)O1)Nc1nccs1	7	17

3 entries out of the list, ordered by count of non-hydrogen atoms, largest number first:
SMILES	Vaccinia inh	Vaccinia inh Venus
C[C@H]1CN([C@@H](C)CO)C(=O)Cc2cc(NC(=O)Cn3cnnn3)ccc2O[C@H]1CN(C)Cc1ccc(Oc2ccccc2)cc1	-7	1
COc1ccc(NC(=O)Nc2ccc3c(c2)C(=O)N([C@@H](C)CO)C[C@@H](C)[C@@H](CN(C)C)OCCCC[C@@H](C)O3)cc1	12	12
CCC(=O)N1CCCCN2[C@H](CO)[C@H](c3ccc(-c4cccnc4)cc3)[C@@H]2C1	34	13

More entries.
SMILES	Vaccinia inh	Vaccinia inh Venus
C[C@H]1CN([C@@H](C)CO)C(=O)Cc2cc(N(C)C)ccc2O[C@@H]1CN(C)Cc1ccncc1	19	14
C[C@H]1CN([C@@H](C)CO)C(=O)c2cc(C#CCc3ccccc3)cnc2O[C@@H]1CN(C)Cc1ccccc1	-24	-25
O=C1c2ccccc2C(=O)N1CC1CCN(Cc2ccc(OCCO)cc2)CC1	2	-3
C/C=C/c1cnc2c(c1)C(=O)N([C@@H](C)CO)C[C@@H](C)[C@@H](CN(C)C(=O)c1cccnc1)O2	-1	-11
C[C@H](CO)N1C[C@H](C)[C@@H](CN(C)S(=O)(=O)c2ccc(F)cc2)Oc2ccc(N(C)C)cc2C1=O	10	6
O=S(=O)(c1ccccc1)N1CC2(C1)[C@H](c1ccccc1)[C@@H](CO)N2CC1CCOCC1	-4	-5
Cc1noc(C)c1NC(=O)N(C)C[C@@H]1Oc2ncc(C#Cc3ccc(F)cc3)cc2C(=O)N([C@H](C)CO)C[C@@H]1C	31	21
C[C@H]1CN([C@@H](C)CO)S(=O)(=O)c2ccc(-c3cccc(C#N)c3)cc2O[C@@H]1CN(C)C(=O)Nc1ccccc1F	-31	-26
CO[C@H]1CN(C)C(=O)c2cc(NS(=O)(=O)c3cn(C)cn3)ccc2OC[C@@H](C)N(CCC(F)(F)F)C[C@H]1C	19	8
CN1CCN(C(=O)C[C@@H]2CC[C@H]3[C@@H](COC[C@@H](O)CN3C(=O)Nc3ccc(Cl)cc3)O2)CC1	13	54
O=C(CCN1CCCCC1)N[C@@H]1CC[C@H](CCNS(=O)(=O)c2ccccc2)O[C@H]1CO	-7	-6
CCCN1C[C@H](C)[C@@H](OC)CN(C)C(=O)c2cc(NC(=O)CC(F)(F)F)ccc2OC[C@@H]1C	-7	0
C[C@H]1CN([C@@H](C)CO)S(=O)(=O)c2ccc(C#Cc3cccc(F)c3)cc2O[C@H]1CN(C)S(=O)(=O)c1ccccc1F	-26	-19
C[C@H]1CN([C@@H](C)CO)C(=O)c2cc(NS(=O)(=O)c3cccs3)ccc2O[C@H]1CN(C)Cc1ccccc1	6	4
COc1ccc(S(=O)(=O)N(C)C[C@@H]2Oc3c(NC(=O)c4cc(C)nn4C)cccc3C(=O)N([C@H](C)CO)C[C@H]2C)cc1	-6	-7
COc1cccc(-c2ccc3n(c2=O)C[C@@H]2[C@@H](CO)[C@H](C(=O)N(C)C)[C@H]3N2C(=O)c2ccccn2)c1	23	11
O=C(C[C@H]1C[C@@H]2c3cc(NC(=O)c4ccc5c(c4)OCO5)ccc3O[C@@H]2[C@H](CO)O1)NCc1ccc(Oc2ccccc2)cc1	6	6
Cc1ccc(S(=O)(=O)N[C@H]2CC[C@@H](CC(=O)O)O[C@@H]2CO)cc1	-7	1
C[C@H]1CN([C@@H](C)CO)S(=O)(=O)c2ccc(-c3cccnc3)cc2O[C@@H]1CN(C)C(=O)CC1CC1	17	13
CCCC(=O)N1CCC2(CC1)CN(C(=O)c1ccc(F)cc1)[C@@H](CO)c1[nH]c3cc(OC)ccc3c12	1	-2
C/C=C/c1ccc([C@H]2[C@@H](CO)N3C(=O)CN(C(=O)c4cnccn4)C[C@@H]23)cc1	14	4
COc1cccc(CNC(=O)C[C@H]2CC[C@@H](NC(=O)C3CCC3)[C@@H](CO)O2)c1	16	6
COc1ccc(-c2ccc(C3[C@H]4CNC[C@@H]3N4C(=O)Nc3cccc(OC)c3)cc2)cc1 (stereo partly specified)	7	5
COCCNC(=O)C[C@@H]1CC[C@H]2[C@@H](COC[C@@H](O)CN2S(=O)(=O)c2ccccc2F)O1	6	14
C[C@H](CO)N1C[C@H](C)[C@@H](CN(C)S(=O)(=O)c2cn(C)cn2)Oc2c(NS(=O)(=O)c3ccc(F)cc3)cccc2C1=O	26	26
C[C@@H]1CN([C@@H](C)CO)C(=O)Cc2cc(NC(=O)Nc3cccc4ccccc34)ccc2O[C@@H]1CN(C)C(=O)Nc1ccc2c(c1)OCO2	1	-2
O=C(C[C@H]1C[C@@H]2c3cc(NC(=O)NC4CCCC4)ccc3O[C@@H]2[C@@H](CO)O1)NCc1ccccn1	36	25
CC(C)NC(=O)N1[C@@H]2CNc3ccccc3[C@@H]2[C@@H]1CO	4	2
O=C(CN1CCOCC1)N[C@@H]1CC[C@H](CCn2cc(C3CC3)nn2)O[C@@H]1CO	-4	1
C[C@H](CO)N1C[C@H](C)[C@H](CN(C)S(=O)(=O)c2ccsc2)OCc2ccccc2-c2c(n(C)c3ccccc23)C1=O	15	-3
CC(=O)N1CC2(C1)[C@H](c1ccccc1)[C@H](CO)N2Cc1ccccc1	10	11
C[C@@H]1CN([C@@H](C)CO)C(=O)CCCn2cc(nn2)CO[C@@H]1CN(C)C(=O)Nc1ccc(F)cc1	11	8
Cc1ccccc1S(=O)(=O)NCC[C@H]1CC[C@H](NC(=O)Nc2cccc(F)c2)[C@@H](CO)O1	-13	-4
C[C@@H]1CCCCO[C@H](CN(C)C(=O)CCCN(C)C)[C@H](C)CN([C@@H](C)CO)C(=O)c2cc(N(C)C)ccc2O1	0	1
CCC(=O)Nc1ccc2c(c1)OC[C@H](C)N(C(=O)c1cnccn1)C[C@@H](C)[C@@H](OC)CN(C)C2=O	23	8
COc1cccc(C(=O)Nc2ccc3c(c2)C(=O)N(C)C[C@@H](OC)[C@H](C)CN(C)[C@@H](C)CO3)c1	-15	-4
O=C(c1ccc2c(c1)OCO2)N1C[C@H]2[C@@H](c3ccccc31)[C@H](CO)N2Cc1cccnc1	8	1
C[C@H]1CN([C@@H](C)CO)C(=O)c2cccc(NS(=O)(=O)c3ccc(Cl)cc3)c2O[C@H]1CN(C)C(=O)Nc1ccc2c(c1)OCO2	30	24
C[C@H](CO)N1C[C@H](C)[C@@H](CN(C)Cc2ccc(Oc3ccccc3)cc2)Oc2c(NC(=O)Nc3ccccc3)cccc2C1=O	-28	-11
COc1cccc(S(=O)(=O)Nc2ccc3c(c2)C(=O)N(C)C[C@H](OC)[C@H](C)CN(Cc2ccccc2F)[C@@H](C)CO3)c1	-22	-14
C[C@@H]1CCCCO[C@H](CN(C)Cc2ccccc2)[C@@H](C)CN([C@@H](C)CO)C(=O)c2cc(NS(C)(=O)=O)ccc2O1	-9	-4
O=C(C[C@@H]1C[C@@H]2c3cc(NC(=O)c4cccnc4)ccc3O[C@@H]2[C@H](CO)O1)NCc1cccnc1	11	6
O=C(C[C@H]1CC[C@H]2[C@@H](COC[C@@H](O)CN2CC2CCOCC2)O1)NCC1CCCCC1	13	14
O=C(C[C@H]1CC[C@@H]2[C@H](COC[C@@H](O)CN2Cc2cc(F)cc(F)c2)O1)NCc1cccc(F)c1	-4	-11
Cc1noc(C)c1S(=O)(=O)Nc1ccc2c(c1)CC(=O)N([C@@H](C)CO)C[C@H](C)[C@H](CN(C)Cc1ccc(Cl)c(Cl)c1)O2	?	/
O=C(C[C@@H]1CC[C@H]2[C@@H](COC[C@@H](O)CN2CCC(F)(F)F)O1)NCC1CC1	4	6
C[C@@H]1CN([C@@H](C)CO)C(=O)c2cc(NC(=O)Nc3ccc(F)cc3)ccc2O[C@@H](C)CCCCO[C@H]1CN(C)Cc1ccc2c(c1)OCO2	?	/
CN1CCN(C(=O)C[C@@H]2CC[C@H](NC(=O)Cc3ccccn3)[C@@H](CO)O2)CC1	14	12
COCCNC(=O)[C@H]1[C@H](CO)[C@H]2Cn3c(ccc(-c4cccc(F)c4)c3=O)[C@@H]1N2C(=O)NC(C)C	0	4
COc1ccccc1S(=O)(=O)N[C@@H]1CC[C@H](CCn2cc(C3CC3)nn2)O[C@@H]1CO	-8	-7
